Screens (PubChem)
Polio RdRp inh: poliovirus RNA polymerase inhibition; P03300; poliovirus polymerase elongation, fluorescence polarization; stronger effect = lower value; % elongation, % (compound at 16.7 µg/mL); 0.66% of 150,000 active; AID 588519; in the data active = % elongation below about 90%; also: some results filed as inactive read as strong as hits
Target sequence (P03300 1749-2209 limits assumed): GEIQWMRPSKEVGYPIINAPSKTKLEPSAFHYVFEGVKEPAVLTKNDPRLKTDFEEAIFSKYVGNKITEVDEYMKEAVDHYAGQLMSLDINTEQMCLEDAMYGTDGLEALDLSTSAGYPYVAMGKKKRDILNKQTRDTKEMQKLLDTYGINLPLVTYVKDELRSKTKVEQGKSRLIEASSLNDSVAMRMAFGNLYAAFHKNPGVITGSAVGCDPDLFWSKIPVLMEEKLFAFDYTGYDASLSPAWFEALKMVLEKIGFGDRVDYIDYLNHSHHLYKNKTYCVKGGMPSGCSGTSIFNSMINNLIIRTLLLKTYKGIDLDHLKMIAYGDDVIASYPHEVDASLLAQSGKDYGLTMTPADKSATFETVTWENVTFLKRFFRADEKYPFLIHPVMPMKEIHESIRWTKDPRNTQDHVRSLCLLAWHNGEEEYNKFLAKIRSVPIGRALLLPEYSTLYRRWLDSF
Polio RdRp inh intensity: recorded beside Polio RdRp inh, whose call it bears; % elongation; measured here: total intensity read-out; formula for this scale not given here;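 total fluorescence in place of polarization; lower means less elongation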
Active calls of the source: *. These rows are one share of the data; rates above refer to the full screens.

What do the screens show for `CCOc1ccccc1NC(=O)Cn1c(=O)n(Cc2ccco2)c(=O)c2ccc(C(=O)NC3CCCC3)cc21`?
Polio RdRp inh: 103; Polio RdRp inh intensity: 105

Results for Cc1cccc(CNC(=O)c2ccc(Cn3c(SCc4ccccc4)nc4cccnc43)cc2)c1 ?
Polio RdRp inh: 115; Polio RdRp inh intensity: 120

How did COc1ccc(N2Cc3cccc(C(=O)Nc4cccc(F)c4)c3C2=O)cc1 do in these assays?
Polio RdRp inh: 104; Polio RdRp inh intensity: 105

How did CCc1ccccc1NC(=O)CCCn1c(=O)c2cccn2c2ccccc21 do in these assays?
Polio RdRp inh: 109; Polio RdRp inh intensity: 95

What do the screens show for `COc1ccc(NC(=O)CCS(=O)(=O)c2cccc3nonc23)cc1Cl`?
Polio RdRp inh: 100; Polio RdRp inh intensity: 103

How did COc1cccc2cc(C(=O)NCCc3c(C)[nH]c4ccc(F)cc34)c(=O)oc12 do in these assays?
Polio RdRp inh: 107; Polio RdRp inh intensity: 108

What do the screens show for `CCCNc1ncnc2c1c(-c1ccccc1)cn2-c1ccc(OCC)cc1`?
Polio RdRp inh: 114; Polio RdRp inh intensity: 112

What do the screens show for `CC(C)(C)c1ccc(OCCn2cc(C(=O)c3ccco3)c3ccccc32)cc1`?
Polio RdRp inh: 105; Polio RdRp inh intensity: 106

What do the screens show for `CC1=C(C(=O)Nc2ccccc2C)C(c2cccs2)n2nc(SCc3ccccc3)nc2N1` (stereo not given)?
Polio RdRp inh: 107; Polio RdRp inh intensity: 109

Results for CCn1nc(-c2ccccc2)c(-c2ccccc2)c(C(=O)Nc2nc(C)c(C(C)=O)s2)c1=O ?
Polio RdRp inh: 102; Polio RdRp inh intensity: 104

How did Cc1ccc(SCC(=O)Nc2ccc3oc(-c4cccc(Cl)c4)nc3c2)cc1 do in these assays?
Polio RdRp inh: 103; Polio RdRp inh intensity: 105

How did Cc1cc(C)cc(N(CC(=O)Nc2ccc(C(F)(F)F)cc2)S(=O)(=O)c2c(C)[nH]c(=O)[nH]c2=O)c1 do in these assays?
Polio RdRp inh: 109; Polio RdRp inh intensity: 110

What do the screens show for `CCN(CC)c1ccc(NC(=O)c2cnc3c(-c4ccccc4)c(C)nn3c2C)c(C)c1`?
Polio RdRp inh: 113; Polio RdRp inh intensity: 116

How did CS(=O)(=O)N1CCc2cc(C(=O)NCCc3ccccc3)ccc21 do in these assays?
Polio RdRp inh: 107; Polio RdRp inh intensity: 111

Results for O=c1c2sc3ccccc3c2n(Cc2ccccc2)c(=O)n1Cc1ccccc1 ?
Polio RdRp inh: 106; Polio RdRp inh intensity: 106

What do the screens show for `COc1cc(OC)c(NC(=O)CSCc2nc(-c3ccc(OC)c(OC)c3)no2)cc1Cl`?
Polio RdRp inh: 111; Polio RdRp inh intensity: 114

What do the screens show for `Cn1c(=O)oc2cc(S(=O)(=O)CCC(=O)N3CCN(c4cccc(Cl)c4)CC3)ccc21`?
Polio RdRp inh: 116; Polio RdRp inh intensity: 113

What do the screens show for `CCC(O)c1cc2c(cc1NC(=O)c1cccc(Br)c1)OCCO2` (stereo not given)?
Polio RdRp inh: 106; Polio RdRp inh intensity: 109

What do the screens show for `COc1ccc(Cn2ccn(Cc3cccc(Cl)c3)c(=O)c2=O)cc1`?
Polio RdRp inh: 106; Polio RdRp inh intensity: 98

How did CCOc1ccc(CC(=O)Nc2c(C(=O)c3ccc(Cl)cc3)oc3ccccc23)cc1OCC do in these assays?
Polio RdRp inh: 104; Polio RdRp inh intensity: 105

Reprinted from the part before: 2 compounds; new compounds follow.
What do the screens show for `COc1ccc(Cn2ccn(Cc3cccc(Cl)c3)c(=O)c2=O)cc1`?
Polio RdRp inh: 106; Polio RdRp inh intensity: 98

How did CCOc1ccc(CC(=O)Nc2c(C(=O)c3ccc(Cl)cc3)oc3ccccc23)cc1OCC do in these assays?
Polio RdRp inh: 104; Polio RdRp inh intensity: 105

Results for COc1cc(Nc2nc3c(S(=O)(=O)c4ccc(C)c(C)c4)nnn3c3ccsc23)cc(OC)c1 ?
Polio RdRp inh: 108; Polio RdRp inh intensity: 103

Results for CCOc1nc(NC(=O)NS(=O)(=O)Oc2ccccc2)nc(-c2ccccc2)n1 ?
Polio RdRp inh: 105; Polio RdRp inh intensity: 109

Results for CCN(CC)C(=O)Cn1c(=O)n(-c2ccc(Cl)cc2)c(=O)c2c3c(sc21)CCC3 ?
Polio RdRp inh: 103; Polio RdRp inh intensity: 105

How did COc1ccc(CC(=O)N2CCc3c([nH]c4ccccc34)C2c2ccc(SC)cc2)cc1 (stereo not given) do in these assays?
Polio RdRp inh: 100; Polio RdRp inh intensity: 104

How did CCOc1ccc(Cn2c(CNS(=O)(=O)c3ccc(C(C)(C)C)cc3)nc3cccnc32)cc1 do in these assays?
Polio RdRp inh: 114; Polio RdRp inh intensity: 122

Results for O=S(=O)(NCCc1nnc2ccc(SCc3cccc(Cl)c3)nn12)c1ccccc1 ?
Polio RdRp inh: 111; Polio RdRp inh intensity: 113

How did Cn1c(=O)c2cc(C(=O)N3CCN(c4cccc(C(F)(F)F)c4)CC3)sc2c2ccccc21 do in these assays?
Polio RdRp inh: 107; Polio RdRp inh intensity: 108

What do the screens show for `COc1ccc(Cn2c(SCc3ccc(C(=O)NCCc4ccccc4)cc3)nc3cccnc32)cc1`?
Polio RdRp inh: 110; Polio RdRp inh intensity: 116

Results for Fc1ccc(CNc2ncnc3c2c(-c2ccccc2)cn3-c2ccccc2)cc1 ?
Polio RdRp inh: 111; Polio RdRp inh intensity: 104

What do the screens show for `Cc1c(C(=O)OC2CCCCCC2)[nH]c2c1C(=O)CC(c1ccc(N(C)C)cc1)C2` (stereo not given)?
Polio RdRp inh: 105; Polio RdRp inh intensity: 100

How did COc1ccc(C(=O)NCC(c2cccs2)S(=O)(=O)c2ccc(F)c(C)c2)cc1 (stereo not given) do in these assays?
Polio RdRp inh: 99; Polio RdRp inh intensity: 102

What do the screens show for `COc1ccc(S(=O)(=O)c2c(C(=O)c3ccc(C)c(C)c3)cnc3ccc(C)cc23)cc1`?
Polio RdRp inh: 109; Polio RdRp inh intensity: 110

Results for COc1ccccc1OCC(=O)NCc1nc(-c2ccc(Cl)cc2)no1 ?
Polio RdRp inh: 102; Polio RdRp inh intensity: 109

How did COc1ccc(OCc2nc3c4c(-c5ccccc5)c(-c5ccccc5)oc4ncn3n2)cc1 do in these assays?
Polio RdRp inh: 102; Polio RdRp inh intensity: 102

Results for CCc1ccc(-n2nc(C)c3c(C)cc(=O)n(CC(=O)Nc4ccccc4C(=O)OC)c32)cc1 ?
Polio RdRp inh: 110; Polio RdRp inh intensity: 113

What do the screens show for `COC(=O)c1ccc(NC(=O)N2CCN(c3nnc(C)c4c(C)n(-c5ccccc5)nc34)CC2)cc1`?
Polio RdRp inh: 102; Polio RdRp inh intensity: 105

How did CCCN(CCC)CCCNC(=O)c1cn(C)c2ccc(S(=O)(=O)N3CCOCC3)cc2c1=O do in these assays?
Polio RdRp inh: 105; Polio RdRp inh intensity: 107

How did O=C(NCc1ccc(Cl)cc1)c1ccc2c(c1)NC(=O)C(CS(=O)(=O)Cc1ccccc1Cl)N2 (stereo not given) do in these assays?
Polio RdRp inh: 140; Polio RdRp inh intensity: 155

How did Cc1cccc(CNC(=O)CSCc2cnn(-c3ccccc3)c2-n2cccc2)c1 do in these assays?
Polio RdRp inh: 112; Polio RdRp inh intensity: 111

What do the screens show for `Cc1cccc(N2CCN(c3ncnc4c3nc3n4CCCCC3)CC2)c1C`?
Polio RdRp inh: 110; Polio RdRp inh intensity: 105

Pulled by structure from the entries so far (six):
How did COc1ccc(CC(=O)N2CCc3c([nH]c4ccccc34)C2c2ccc(SC)cc2)cc1 (stereo not given) do in these assays?
Polio RdRp inh: 100; Polio RdRp inh intensity: 104

How did O=C(NCc1ccc(Cl)cc1)c1ccc2c(c1)NC(=O)C(CS(=O)(=O)Cc1ccccc1Cl)N2 (stereo not given) do in these assays?
Polio RdRp inh: 140; Polio RdRp inh intensity: 155

How did CCCN(CCC)CCCNC(=O)c1cn(C)c2ccc(S(=O)(=O)N3CCOCC3)cc2c1=O do in these assays?
Polio RdRp inh: 105; Polio RdRp inh intensity: 107

What do the screens show for `Cc1cccc(N2CCN(c3ncnc4c3nc3n4CCCCC3)CC2)c1C`?
Polio RdRp inh: 110; Polio RdRp inh intensity: 105

Results for Fc1ccc(CNc2ncnc3c2c(-c2ccccc2)cn3-c2ccccc2)cc1 ?
Polio RdRp inh: 111; Polio RdRp inh intensity: 104

What do the screens show for `Cc1c(C(=O)OC2CCCCCC2)[nH]c2c1C(=O)CC(c1ccc(N(C)C)cc1)C2` (stereo not given)?
Polio RdRp inh: 105; Polio RdRp inh intensity: 100

Additional compounds:
What do the screens show for `N#Cc1c(NC(=O)c2cc3nc(-c4ccc(Br)cc4)cc(C(F)(F)F)n3n2)sc2c1CCCC2`?
Polio RdRp inh: 93; Polio RdRp inh intensity: 93

What do the screens show for `Cc1cc(C)c(NC(=O)c2cc3c(=O)n4ccccc4nc3n2C)c(C)c1`?
Polio RdRp inh: 107; Polio RdRp inh intensity: 109

What do the screens show for `Cc1ccc(CN(C(=O)c2ccc(F)cc2)c2ccccn2)o1`?
Polio RdRp inh: 103; Polio RdRp inh intensity: 107

What do the screens show for `CCn1ccc2c(OCC(=O)NCc3ccc(F)cc3)cccc2c1=O`?
Polio RdRp inh: 112; Polio RdRp inh intensity: 116

How did CCOCCCNC(=O)Cn1cc2c(n1)-c1c(oc(C(=O)N3CCCC3)c1C)CC2 do in these assays?
Polio RdRp inh: 111; Polio RdRp inh intensity: 111

Results for COc1ccc(-c2nnc(C3CCN(C(=O)c4ccccc4F)CC3)o2)cc1 ?
Polio RdRp inh: 102; Polio RdRp inh intensity: 105

How did CCOC(=O)CC(NC(=O)c1cc2c(=O)n3cccc(C)c3nc2s1)c1ccc(OCC)c(OC)c1 (stereo not given) do in these assays?
Polio RdRp inh: 103; Polio RdRp inh intensity: 100

What do the screens show for `Cc1ccc(C(=O)c2oc3ccccc3c2NC(=O)COc2ccc(C(C)C)cc2)cc1`?
Polio RdRp inh: 109; Polio RdRp inh intensity: 111

Results for COc1ccc(N2CCN(c3csc4ccccc4c3=O)CC2)cc1 ?
Polio RdRp inh: 104; Polio RdRp inh intensity: 102

What do the screens show for `CCC(C(=O)NCCc1ccc(Cl)cc1)n1ccc2cc(S(=O)(=O)N3CCCCC3)ccc21` (stereo not given)?
Polio RdRp inh: 107; Polio RdRp inh intensity: 115

Results for COc1ccc(OC)c(CNC(=O)c2cnc(N(C)C)nc2)c1 ?
Polio RdRp inh: 108; Polio RdRp inh intensity: 114

Results for Cc1cccc(NC(=O)C2CCN(S(=O)(=O)c3c(C)noc3/C=C/c3ccco3)CC2)c1 ?
Polio RdRp inh: 113; Polio RdRp inh intensity: 113

What do the screens show for `CCC(=O)N1CCc2cc(S(=O)(=O)NC(CC(C)C)C(=O)NCCc3cccc(C)c3)ccc21` (stereo not given)?
Polio RdRp inh: 101; Polio RdRp inh intensity: 104

How did O=C(CSc1nccn1Cc1ccccc1)NCc1ccc(F)cc1 do in these assays?
Polio RdRp inh: 106; Polio RdRp inh intensity: 114

Results for Cc1cccc(N2CCN(C(=O)CN3CCSc4ccccc43)CC2C)c1 (stereo not given) ?
Polio RdRp inh: 107; Polio RdRp inh intensity: 104

What do the screens show for `CC(=O)c1ccc(NC(=O)CSc2nccn2Cc2ccc3c(c2)OCO3)cc1`?
Polio RdRp inh: 100; Polio RdRp inh intensity: 95

Results for COc1ccc(C)cc1NC(=O)C(=O)NCCc1sc(-c2ccc(Cl)cc2)nc1C ?
Polio RdRp inh: 105; Polio RdRp inh intensity: 112

Results for COc1ccc(NC(=O)c2c(-c3ccc(C)cc3)nnc3ccccc23)cc1OC ?
Polio RdRp inh: 105; Polio RdRp inh intensity: 104

What do the screens show for `COc1ccc(CC(=O)Nc2cc(-c3nc4cccnc4s3)ccc2C)cc1`?
Polio RdRp inh: 102; Polio RdRp inh intensity: 109

What do the screens show for `Cc1ccccc1OCCSc1nnc(-c2ccc([N+](=O)[O-])cc2)o1`?
Polio RdRp inh: 108; Polio RdRp inh intensity: 95

What do the screens show for `CCC1CCc2c(sc(NC(=O)C3c4ccccc4Oc4ccccc43)c2C#N)C1` (stereo not given)?
Polio RdRp inh: 103; Polio RdRp inh intensity: 108

How did COc1ccc(CC(=O)NCCc2sc3nc(-c4ccc(OC)cc4)nn3c2C)cc1 do in these assays?
Polio RdRp inh: 103; Polio RdRp inh intensity: 106

Results for Clc1ccc(N2CCN(c3ncnc4c3nc3n4CCCC3)CC2)cc1 ?
Polio RdRp inh: 99; Polio RdRp inh intensity: 108

What do the screens show for `CCCn1c(-c2cccc(Br)c2)nc2ccccc21`?
Polio RdRp inh: 101; Polio RdRp inh intensity: 101

How did COc1ccc2nc3sc(C(=O)Nc4ccccc4F)cc3cc2c1 do in these assays?
Polio RdRp inh: 112; Polio RdRp inh intensity: 112

Results for Cc1ccc(-n2c(=O)c3c(c4cc(C)ccc4n3C)n(CC(=O)Nc3c(C)cccc3C)c2=O)cc1 ?
Polio RdRp inh: 104; Polio RdRp inh intensity: 102

How did O=C(COc1ccc(F)cc1)Nc1ccc(OCc2cc(=O)n3ccsc3n2)cc1 do in these assays?
Polio RdRp inh: 106; Polio RdRp inh intensity: 107

How did COc1ccccc1OCc1nnc(-c2ccccc2)o1 do in these assays?
Polio RdRp inh: 104; Polio RdRp inh intensity: 107

Results for CCn1ccc2c(OCC(=O)Nc3ccc(C)c(Cl)c3)cccc2c1=O ?
Polio RdRp inh: 106; Polio RdRp inh intensity: 112

How did Cc1ccc(C)c(N(C)C(=O)c2cn(C)c(=O)c3ccccc23)c1 do in these assays?
Polio RdRp inh: 100; Polio RdRp inh intensity: 104

Results for CCc1ccc(NC(=O)Cn2ccn(-c3cccc(Cl)c3)c(=O)c2=O)cc1 ?
Polio RdRp inh: 104; Polio RdRp inh intensity: 103

What do the screens show for `Cc1nn(CC(=O)NC2CCC(C)CC2)c(=O)c2c1sc1ccccc12` (stereo not given)?
Polio RdRp inh: 106; Polio RdRp inh intensity: 102

What do the screens show for `Cc1cccc(C(C)C)c1NC(=O)c1ccc2c(c1)CCCN2S(C)(=O)=O`?
Polio RdRp inh: 109; Polio RdRp inh intensity: 110

How did COCCNC(=O)CSc1nnc2[nH]c(=O)cc(C)n12 do in these assays?
Polio RdRp inh: 105; Polio RdRp inh intensity: 106
